Yeast UUG start – alters start codon recognition fidelity in yeast. hit rate 0.13% among 350,000. S. cerevisiae UUG-firefly luciferase reporter, luminescence/redox ratio. activity score, % at 18.7 µM;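 active = replicate mean at a twofold rise or more, about +100% in these data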;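 also: firefly luciferase made from a UUG start codon reports start codon fidelity; reporter light over untreated wells divided by growth signal over untreated wells; some hits fall short of that in this replicate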
HIV Env fusion – HIV envelope-mediated fusion inhibition. HeLa-JRFL Env/CEM21 cell fusion, luciferase. inhibition, % at 12.3 µM. hit rate 1.1% among 360,000. AID 651610;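 active = mean replicate inhibition score of at least 50 and every replicate individually at or above 50; inconclusive = only one of the two criteria met; inactive = mean below 50 and not all replicates reaching 50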;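 also: 0% = plate neutral controls and 100% = maraviroc near 300 nM; one replicate is shown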
Active calls of the source: *; ? = inconclusive; [ ] = remark or other dose. Not all compounds are listed, so the mix of outcomes need not match the whole.

[1] C[C@@H]1CN([C@@H](C)CO)C(=O)c2cc(C#C[C@@H](C)O)cnc2O[C@H]1CN(C)Cc1cccc(C(=O)O)c1
[2] C[C@@H](O)C#Cc1cnc2c(c1)C(=O)N([C@@H](C)CO)C[C@H](C)[C@H](CN(C)Cc1cncnc1)O2
[3] Cc1ccccc1S(=O)(=O)N1[C@@H](C#N)[C@H](c2ccccc2)[C@@H]1CO
[4] C[C@H](CO)N1C[C@H](C)[C@@H](CN(C)C(=O)Nc2cccc3ccccc23)OCCCC[C@H](C)Oc2ccc(NC(=O)Nc3cccc4ccccc34)cc2C1=O
[5] C[C@@H]1CN([C@H](C)CO)C(=O)c2cc(C#CC3(O)CCCC3)cnc2O[C@@H]1CN(C)C(=O)Nc1ccc2c(c1)OCO2
compound no.,1,2,3,4,5
Yeast UUG start,3,7,-6,-13,13
HIV Env fusion,-7[16.7 µM],2[16.7 µM],7[16.7 µM],14[16.7 µM],3[16.7 µM]

[6] O=C(Nc1ccc2c(c1)[C@@H]1C[C@H](CC(=O)N3CCOCC3)O[C@H](CO)[C@@H]1O2)C1CCC1
[7] C[C@@H]1CCCCO[C@H](CN(C)Cc2ccc(C(=O)O)cc2)[C@@H](C)CN([C@H](C)CO)C(=O)c2cc(NC(=O)Cc3ccccc3)ccc2O1
[8] CC(C)NC(=O)N(C)C[C@@H]1OCCCC[C@@H](C)Oc2ccc(NS(=O)(=O)c3cn(C)cn3)cc2C(=O)N([C@H](C)CO)C[C@@H]1C
[9] C[C@@H]1CCCCO[C@H](CN(C)S(=O)(=O)c2ccccc2)[C@@H](C)CN([C@H](C)CO)C(=O)c2cc(NS(C)(=O)=O)ccc2O1
[10] COc1ccc(S(=O)(=O)N(C)C[C@@H]2Oc3c(NC(=O)C4CC4)cccc3C(=O)N([C@H](C)CO)C[C@@H]2C)cc1
compound no.,6,7,8,9,10
Yeast UUG start,-13,8,49,-67,6
HIV Env fusion,30[16.7 µM],-19[16.7 µM],-4[16.7 µM],-10[16.7 µM],9[16.7 µM]

[11] Cc1ccc(S(=O)(=O)Nc2cccc3c2O[C@@H](CN(C)C(=O)Nc2c(C)noc2C)[C@@H](C)CN([C@H](C)CO)C3=O)cc1
[12] C[C@@H]1CN([C@H](C)CO)C(=O)c2cc(N(C)C)ccc2O[C@H]1CN(C)S(=O)(=O)c1ccccc1
[13] C[C@@H]1CN([C@@H](C)CO)C(=O)Cc2cc(NS(=O)(=O)c3ccc(F)cc3)ccc2O[C@H]1CN(C)S(C)(=O)=O
[14] CCCNC(=O)C[C@@H]1CC[C@H]2[C@H](COc3ccc(NC(=O)NCC)cc3C(=O)N2C)O1
[15] CO[C@H]1CN(C)C(=O)c2cc(NS(=O)(=O)c3ccc(Oc4ccccc4)cc3)ccc2OC[C@H](C)NC[C@@H]1C
compound no.,11,12,13,14,15
Yeast UUG start,3,-12,-9,-2,-2
HIV Env fusion,-10[16.7 µM],2[16.7 µM],-13[16.7 µM],-4[16.7 µM],-39[16.7 µM]

[16] C[C@H]1CN([C@@H](C)CO)C(=O)c2cc(NC(=O)Nc3ccc(C(F)(F)F)cc3)ccc2O[C@@H]1CN(C)C(=O)Nc1ccc(C(F)(F)F)cc1
[17] O=C(NCc1ccccc1)[C@]1(Cc2ccccc2)N=C(c2ccc(OCCCO)cc2)O[C@@H]1c1ccccc1
[18] C[C@H](CO)N1C[C@H](C)[C@H](CN(C)CC2CC2)Oc2c(cccc2N(C)C)C1=O
[19] C[C@H]1CN([C@@H](C)CO)C(=O)c2cccc(NC(=O)C3CC3)c2O[C@@H]1CN(C)C(=O)Nc1cccc2ccccc12
[20] CN1CCN(C(=O)C[C@@H]2C[C@@H]3c4cc(NC(=O)C5CCOCC5)ccc4O[C@@H]3[C@@H](CO)O2)CC1
compound no.,16,17,18,19,20
Yeast UUG start,-5,-4,-11,-2,1
HIV Env fusion,-29[16.7 µM],36[16.7 µM],-8[16.7 µM],?,-6[16.7 µM]

[21] CCC(=O)Nc1ccc2c(c1)C(=O)N(C)[C@@H]1CC[C@@H](CC(=O)NC3CCCC3)O[C@@H]1CO2
[22] COC(=O)C[C@H]1C[C@@H]2c3cc(NS(=O)(=O)c4ccc(F)cc4)ccc3O[C@@H]2[C@@H](CO)O1
[23] C[C@@H]1CN([C@H](C)CO)S(=O)(=O)c2ccc(C#Cc3ccncc3)cc2O[C@H]1CN(C)C
[24] COc1ccccc1S(=O)(=O)N[C@H]1CC[C@H](CCNC(=O)C2CC2)O[C@@H]1CO
[25] CC(C)CC#Cc1ccc2c(c1)O[C@@H](CN(C)C(=O)CC1CC1)[C@H](C)CN([C@H](C)CO)S2(=O)=O
compound no.,21,22,23,24,25
Yeast UUG start,-21,6,-3,-4,2
HIV Env fusion,-8[16.7 µM],-21[16.7 µM],-20[16.7 µM],-2[16.7 µM],39[16.7 µM]

[26] C[C@@H]1CN([C@H](C)CO)C(=O)c2cc(NS(=O)(=O)c3ccc(F)cc3)ccc2O[C@H]1CN(C)Cc1ccc(Cl)c(Cl)c1
[27] CN(C)CC(=O)N[C@H]1CC[C@@H](CCn2cc(CN(C)C)nn2)O[C@H]1CO
[28] CCC(=O)N(C)C[C@H]1Oc2cc(C#Cc3ccccn3)ccc2S(=O)(=O)N([C@@H](C)CO)C[C@H]1C
[29] CO[C@H]1CN(C)C(=O)c2cc(NS(=O)(=O)c3ccccc3F)ccc2OC[C@H](C)NC[C@H]1C
[30] Cc1ccccc1-c1ccc2c(c1)O[C@@H](CN(C)C(=O)Nc1ccccc1)[C@H](C)CN([C@@H](C)CO)S2(=O)=O
compound no.,26,27,28,29,30
Yeast UUG start,5,-15,0,-13,-16
HIV Env fusion,-14[16.7 µM],4[16.7 µM],13[16.7 µM],15[16.7 µM],-14[16.7 µM]

[31] COCC(=O)Nc1ccc2c(c1)C(=O)N(C)[C@@H]1CC[C@H](CC(=O)NCc3ccccc3)O[C@@H]1CO2
[32] CC(C)NC(=O)N(C)C[C@@H]1Oc2cc(-c3ccncc3)ccc2S(=O)(=O)N([C@H](C)CO)C[C@H]1C
[33] Cc1ccc(S(=O)(=O)Nc2ccc3c(c2)C(=O)N([C@H](C)CO)C[C@@H](C)[C@@H](CN(C)S(=O)(=O)c2ccc(C)cc2)OCCCC[C@@H](C)O3)cc1
[34] C[C@@H]1CN([C@H](C)CO)C(=O)c2cc(-c3ccccc3)cnc2O[C@@H]1CN(C)C(=O)c1cccc(F)c1
[35] COc1cccc(-c2cnc3c(c2)C(=O)N([C@@H](C)CO)C[C@@H](C)[C@H](CN(C)C(C)=O)O3)c1
compound no.,31,32,33,34,35
Yeast UUG start,-4,13,10,16,-4
HIV Env fusion,-6[16.7 µM],-19[16.7 µM],20[16.7 µM],-5[16.7 µM],-22[16.7 µM]

[36] COc1ccc(S(=O)(=O)Nc2ccc3c(c2)C(=O)N([C@H](C)CO)C[C@H](C)[C@H](CN(C)C)O3)cc1
[37] N#C[C@@H]1[C@@H](c2ccc(-c3ccccc3F)cc2)[C@H](CO)N1C(=O)C1CCC1
[38] Cc1noc(C)c1NC(=O)N[C@@H]1CC[C@H](CC(=O)NCc2ccc(Cl)c(Cl)c2)O[C@@H]1CO
[39] COc1cccc(C#Cc2cnc3c(c2)C(=O)N([C@H](C)CO)C[C@H](C)[C@@H](CN(C)C(=O)C2CC2)O3)c1
[40] CC(C)C#Cc1ccc2c(c1)O[C@H](CN(C)Cc1ccncc1)[C@@H](C)CN([C@H](C)CO)S2(=O)=O
compound no.,36,37,38,39,40
Yeast UUG start,-6,7,-9,24,-1
HIV Env fusion,-2[16.7 µM],4[16.7 µM],7[16.7 µM],-17[16.7 µM],36[16.7 µM]

[41] O=C(C[C@H]1CC[C@@H](NC(=O)Nc2ccccc2F)[C@@H](CO)O1)NCc1ccccc1
[42] CCNC(=O)Nc1ccc2c(c1)C(=O)N(C)[C@H]1CC[C@H](CC(=O)NCCOC)O[C@@H]1CO2
[43] C[C@@H]1CN([C@H](C)CO)C(=O)c2cccc(NS(=O)(=O)c3ccc(Cl)cc3)c2O[C@@H]1CN(C)S(=O)(=O)c1ccc(F)cc1
[44] Cc1ccc(S(=O)(=O)Nc2ccc3c(c2)C(=O)N([C@H](C)CO)C[C@@H](C)[C@@H](CN(C)Cc2ccccc2)OCCCC[C@H](C)O3)cc1
[45] CN1C(=O)c2cc(NC(=O)C3CC3)ccc2OC[C@H]2O[C@H](CC(=O)NCc3cccc(F)c3)CC[C@H]21
compound no.,41,42,43,44,45
Yeast UUG start,2,13,-13,33,9
HIV Env fusion,18[16.7 µM],5[16.7 µM],-3[16.7 µM],27[16.7 µM],-15[16.7 µM]

[46] COc1cccc(S(=O)(=O)N2C[C@H](O)COC[C@H]3O[C@H](CC(=O)NCCCN4CCOCC4)CC[C@@H]32)c1
[47] C[C@H](CO)N1C[C@H](C)[C@@H](CN(C)C(=O)Nc2ccc3c(c2)OCO3)Oc2ccc(NC(=O)Cc3cn(C)c4ccccc34)cc2CC1=O
[48] COCC(=O)Nc1ccc2c(c1)[C@@H]1C[C@@H](CC(=O)NC3CCCC3)O[C@H](CO)[C@@H]1O2
[49] CC(C)CC#Cc1cnc2c(c1)C(=O)N([C@@H](C)CO)C[C@H](C)[C@H](CN(C)C(=O)Cc1ccncc1)O2
[50] O=C(Cc1ccccc1)N[C@@H]1C=C[C@@H](CC(=O)N2CCOCC2)O[C@H]1CO
compound no.,46,47,48,49,50
Yeast UUG start,-3,29,-5,-9,-7
HIV Env fusion,-2[16.7 µM],-11[16.7 µM],0[16.7 µM],-6[16.7 µM],-8[16.7 µM]

[51] C[C@H](CO)N1C[C@H](C)[C@@H](CN(C)Cc2cncnc2)Oc2cc(C3=CCCCC3)ccc2S1(=O)=O
[52] O=C(C[C@@H]1C=C[C@@H](NC(=O)Nc2ccccc2F)[C@@H](CO)O1)NCc1ccc(Cl)cc1
[53] C[C@@H]1CCCCO[C@H](CN(C)S(=O)(=O)c2cn(C)cn2)[C@@H](C)CN([C@H](C)CO)C(=O)c2cc(NS(C)(=O)=O)ccc2O1
[54] CC(=O)n1cc([C@@H]2C=C(C(=O)N3CCN(Cc4ccccc4)CC3)O[C@H](OCCCCO)C2)c2ccccc21
[55] COC(=O)C[C@H]1CC[C@H](NC(=O)c2ccccc2)[C@@H](CO)O1
compound no.,51,52,53,54,55
Yeast UUG start,16,0,-15,70,-19
HIV Env fusion,16[16.7 µM],-20[16.7 µM],-4[16.7 µM],11[16.7 µM],-4[16.7 µM]

[56] C[C@@H]1CCCCO[C@@H](CN(C)C(=O)CCCN(C)C)[C@@H](C)CN([C@H](C)CO)C(=O)c2cc(NC(=O)Nc3ccccc3)ccc2O1
[57] CCCc1cn(CC[C@H]2CC[C@@H](NC(=O)C3CC3)[C@@H](CO)O2)nn1
[58] COc1cccc(NC(=O)N[C@H]2C=C[C@H](CC(=O)NCc3ccncn3)O[C@@H]2CO)c1
[59] C/C=C/c1ccc2c(c1)O[C@H](CN(C)C(=O)c1cccnc1)[C@@H](C)CN([C@@H](C)CO)S2(=O)=O
[60] COc1ccc(NC(=O)N(C)C[C@H]2Oc3ccc(NC(=O)Cn4cnnn4)cc3CC(=O)N([C@@H](C)CO)C[C@@H]2C)cc1
compound no.,56,57,58,59,60
Yeast UUG start,-2,-6,-18,-15,1
HIV Env fusion,-16[16.7 µM],1[16.7 µM],-11[16.7 µM],-31[16.7 µM],-25[16.7 µM]

[61] C[C@H]1CN([C@@H](C)CO)C(=O)c2cccc(NC(=O)Nc3ccccc3)c2O[C@@H]1CN(C)C(=O)Nc1ccc2c(c1)OCO2
[62] O=C(NCC[C@@H]1CC[C@H](NS(=O)(=O)Cc2ccccc2)[C@H](CO)O1)C1CCCC1
[63] CO[C@H]1CN(C)C(=O)c2ccc(NS(C)(=O)=O)cc2OC[C@@H](C)N(CCC(F)(F)F)C[C@@H]1C
[64] CC(C)CC#Cc1cnc2c(c1)C(=O)N([C@H](C)CO)C[C@H](C)[C@@H](CN(C)C(=O)CC1CC1)O2
[65] C[C@@H]1CN([C@H](C)CO)S(=O)(=O)c2ccc(C#CC3CC3)cc2O[C@@H]1CN(C)C(=O)C1CCCCC1
[66] CNC[C@@H]1Oc2cc(C#CC(C)(C)O)ccc2S(=O)(=O)N([C@H](C)CO)C[C@H]1C
[67] C[C@H]1CN([C@@H](C)CO)C(=O)c2cccc(NC(=O)Nc3cccc4ccccc34)c2O[C@@H]1CN(C)C(=O)Nc1ccc(F)cc1
compound no.,61,62,63,64,65,66,67
Yeast UUG start,-7,-2,1,147*,29,-25,0
HIV Env fusion,-21[16.7 µM],-7[16.7 µM],14[16.7 µM],-8[16.7 µM],17[16.7 µM],13[16.7 µM],7[16.7 µM]

Full records from above. Values in the order: Yeast UUG start | HIV Env fusion
Entry for COCC(=O)Nc1ccc2c(c1)C(=O)N(C)[C@@H]1CC[C@H](CC(=O)NCc3ccccc3)O[C@@H]1CO2 : -4 | -6[16.7 µM]
Entry for C[C@@H]1CN([C@H](C)CO)C(=O)c2cc(N(C)C)ccc2O[C@H]1CN(C)S(=O)(=O)c1ccccc1 : -12 | 2[16.7 µM]
Entry for COc1cccc(C#Cc2cnc3c(c2)C(=O)N([C@H](C)CO)C[C@H](C)[C@@H](CN(C)C(=O)C2CC2)O3)c1 : 24 | -17[16.7 µM]
